Screening results deposited in PubChem by Johns Hopkins Ion Channel Center.
KCNQ2 block: KCNQ2 channel blockers in CHO-K1 cells – cell-based, FluxOR thallium flux, B-score, primary screen (AID 2156); O88943; 20 min; active compounds read low; only compounds with negative scores are shown here; some inactives read as strong as hits; B-score at 10 µM; 1.1% of 310,000 active;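 active means fluorescence ratio B-score at most minus 3 library SDs, with starting brightness B-score within 2 library SDs, cut at about -5.5 in these data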
Target sequence (O88943 whole entry, looked up): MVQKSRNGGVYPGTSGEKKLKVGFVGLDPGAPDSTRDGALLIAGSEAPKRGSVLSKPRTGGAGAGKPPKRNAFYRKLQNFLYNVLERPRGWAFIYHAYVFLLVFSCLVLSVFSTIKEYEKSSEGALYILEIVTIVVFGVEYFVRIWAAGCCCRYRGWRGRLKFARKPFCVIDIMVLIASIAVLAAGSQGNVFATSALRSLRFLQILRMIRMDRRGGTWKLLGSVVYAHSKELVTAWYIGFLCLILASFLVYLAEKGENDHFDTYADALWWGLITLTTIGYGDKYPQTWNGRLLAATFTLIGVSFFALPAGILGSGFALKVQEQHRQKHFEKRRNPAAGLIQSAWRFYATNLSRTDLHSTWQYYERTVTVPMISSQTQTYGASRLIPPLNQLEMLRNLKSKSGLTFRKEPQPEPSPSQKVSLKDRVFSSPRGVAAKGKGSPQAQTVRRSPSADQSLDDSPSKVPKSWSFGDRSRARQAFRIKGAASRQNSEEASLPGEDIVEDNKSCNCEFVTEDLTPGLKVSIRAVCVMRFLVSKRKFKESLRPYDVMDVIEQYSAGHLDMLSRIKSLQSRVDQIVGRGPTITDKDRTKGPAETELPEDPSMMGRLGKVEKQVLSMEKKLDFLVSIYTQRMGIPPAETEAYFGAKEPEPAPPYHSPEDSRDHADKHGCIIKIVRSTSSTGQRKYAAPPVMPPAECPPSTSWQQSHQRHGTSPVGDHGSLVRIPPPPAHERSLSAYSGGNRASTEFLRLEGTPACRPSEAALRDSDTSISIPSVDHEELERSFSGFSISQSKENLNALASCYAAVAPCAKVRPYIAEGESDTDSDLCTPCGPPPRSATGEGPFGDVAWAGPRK
KCNQ2 block baseline: second read-out of KCNQ2 block, no call of its own (marks repeat the call); B-score; measured here: initial fluorescence intensity artifact check;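 brightness before thallium and not channel activity; 0 = typical well and far values either way flag optical interference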
An asterisk follows results filed as active; i = inactive. Only part of the results is shown, so the mix of outcomes need not match the whole.

Sequence of screens: KCNQ2 block, KCNQ2 block baseline
Cc1c(C(=O)N2CCc3ccccc3C2)oc2ccc(S(=O)(=O)N3CC(C)CC(C)C3)cc12 (stereo not drawn)
 : i, 0.46
O=C(NCCO)c1cc([N+](=O)[O-])cc2c1C=Cc1ccccc1O2
 : i, 1.6
O=C(CCCCl)NC(=S)Nc1ccc(N2CCOCC2)cc1
 : i, 0.5
Cc1ccc(CNC(=O)COC(=O)CSc2cc(C)c(Br)cc2C)cc1
 : i, 0.12
COC(=O)/C=C(\C)NC(=O)c1ccc(F)cc1
 : i, -1.18
CCOc1ccc(NC(=O)CC2C(=O)N(c3ccccc3)C(=O)N2Cc2ccccn2)cc1 (stereo not drawn)
 : i, -0.01
C=CCSc1nc(C)c(CCCC)c(=O)[nH]1
 : i, -1.56
O=C1C2CC=C(Cl)CC2C(=O)N1CC1OCCc2ccccc21 (stereo not drawn)
 : i, -0.21
O=C(Nc1nc2ccccc2[nH]1)c1cccc(F)c1
 : i, -2.31
O=C(O)C1CCC(Cn2c(SCc3cc(=O)n4cc(Cl)ccc4n3)nc3ccsc3c2=O)CC1 (stereo not drawn)
 : i, 0.86
O=C(Cn1cnc2ccccc2c1=O)OCC(=O)c1ccc2c(c1)OCCO2
 : i, -1.54
COC(=O)c1cccc(NS(=O)(=O)c2ccc(NC(C)=O)cc2)c1C
 : i, 0.46
O=C(Nc1nnc(-c2ccco2)o1)c1ccc(Cl)cc1
 : i, 0.08
COc1cc(/C=N/NC(=O)C(=O)NCc2cccnc2)cc(OC)c1OC
 : i, 1.02
COC(=O)c1cc(Br)c(=O)n(CCN2CCCC2)c1
 : i, 0.66
CNC(=O)Nc1cccc(C(F)(F)F)c1
 : i, 1.31
CC1(C)OC(=O)N(c2ccccc2)C12C=Cc1c(ccc3ccccc13)O2 (stereo not drawn)
 : i, -0.31
Cc1cnnn1-c1ccc(C(=O)CCl)cc1
 : i, -1.29
O=C(NCc1ccncc1)/C(=C/c1cccc([N+](=O)[O-])c1)NC(=O)c1ccccc1
 : i, 0.03
CC1CN(C(=O)CCc2ccccc2)C(C)CN1C(=O)CCc1ccccc1 (stereo not drawn)
 : i, 1.88
COC(=O)c1cc(C(=O)OC)n(Cc2ccc(Cl)cc2Cl)n1
 : i, 0.04
O=C1CCCC2=C1C(c1ccccc1)CC(=O)N2c1ccc(F)cc1F (stereo not drawn)
 : i, 0.01
CCN(C(=O)CN1C(=O)NC(c2ccccc2)(c2ccccc2)C1=O)c1ccccc1
 : i, -2.64
CN(C)c1cc[n+](CC[n+]2ccc(N(C)C)cc2)cc1
 : i, -2.25
C=CCOc1ccc(/C=C\c2nc(O)c([N+](=O)[O-])c(=O)[nH]2)cc1OC
 : i, 0.99
Cc1ccccc1OCC(=O)Nc1nc(C)c(C(=O)N(C)C)s1
 : i, 1.01
COc1ccc(N(CC(=O)Nc2cc(Cl)ccc2OC)C2=NC3CS(=O)(=O)CC3S2)cc1 (stereo not drawn)
 : i, 0.34
CN(C)CCCCCCCCCCC(=O)/C=N/O
 : i, 3.75
CCOc1ccc2[nH]c(O)c(NC(C)=O)c2c1
 : i, 2.65
O=C(Nc1ccc(Br)c(C(F)(F)F)c1)c1ccccc1
 : -7.71*, -1.23*
O=C1C=CC2C(c3ccc4c(c3)OCO4)CC1N2Cc1ccccc1 (stereo not drawn)
 : i, 1.37
CCn1c(SCC(=O)n2c(C)c(C)c3ccccc32)nnc1-c1ccco1
 : i, 1.13
O=[N+]([O-])c1ccc(N2CCN(S(=O)(=O)c3cnc[nH]3)CC2)cc1
 : i, 0.02
Cc1nn(C)c(C)c1NC(=O)c1cc2nc(-c3ccco3)cc(C(F)(F)F)n2n1
 : i, 1.5
O=C(N[C@H](Cc1cc(=O)[nH]c2ccccc12)C(=O)O)c1ccc(Cl)cc1
 : i, 2.94
CCC(C)[C@H](NC(=O)[C@@H]1CSC2c3ccccc3C(=O)N21)C(=O)N1CCCCC1 (stereo partly drawn)
 : i, 1.28
O=C(Nc1ccccc1)c1ccccc1OCc1ccc(F)cc1
 : i, -0.09
Cc1cc(C)nc(SCC(=O)NNC(=O)c2ccccc2C)n1
 : i, 0.32
OC(CNCc1ccc2c(c1)OCO2)COc1ccc(F)cc1 (stereo not drawn)
 : i, 0.67
COc1cccc(/C=N/n2c(=O)[nH]c3ccccc32)c1OC
 : i, 1.13
Cc1nn(C(C)C)c(C)c1CN1CCCC(CCC(=O)NCc2ccccc2F)C1 (stereo not drawn)
 : i, 2.79
CC1CC(C)CN(C(=O)CCCNC(=O)c2ccc(Cl)cc2)C1 (stereo not drawn)
 : i, 1.73
CC(CCc1ccccc1)NC(=O)CCc1cn(C)c2ccccc12 (stereo not drawn)
 : i, 2.03
NNC(=O)c1oc2nc(-c3ccc(Cl)cc3)cc(-c3ccccc3)c2c1N
 : i, 0.07
CCOc1c(Br)cc(C(=O)N2CCCN(C)CC2)cc1OC
 : i, -0.86
CCOc1ccc2nc(SCC(=O)Nc3ccc4[nH]c(=O)[nH]c4c3)[nH]c2c1
 : i, 0.88
CN(C)S(=O)(=O)c1ccc2c(c1)nc(CCC(=O)O)n2C
 : i, -0.24
COc1ccccc1CN(C)C(=O)c1ccccc1Sc1ccccc1C#N
 : i, -0.25
Cc1c(CC(=O)O)c(=O)oc2cc(OCc3nn[nH]n3)ccc12
 : i, -0.75
Cc1n[nH]c(C)c1N=Nc1cc(Cl)ccc1Cl
 : i, 0.5
CCN(CC)CCC(C)OC(c1ccccc1)c1ccccc1 (stereo not drawn)
 : i, -1.32
CCCS(=O)(=O)c1nc(S(=O)(=O)c2ccc(C)cc2)c(NCCCN(C)C)s1
 : i, 0.02
Nc1ccc(O)cc1
 : i, -1.36
Cc1cc(-n2c(C)cc(C(=O)CSc3nnnn3-c3ccc(Cl)cc3)c2C)no1
 : i, 2.32
Cc1ccc2[nH]c3c(c2c1)CN(C(=O)CN1c2ccc(F)cc2CCC1C)CC3 (stereo not drawn)
 : i, 0.31
Cc1cc(C)n2nc(/C(C#N)=C/c3ccccn3)c(C#N)c2n1
 : i, -0.02
COc1cc(Cl)c(S(=O)(=O)N2CCCC2)cc1Cl
 : i, -0.89
O=C(CN(c1ccc2c(c1)OCCO2)S(=O)(=O)c1ccccc1)N1CCN(Cc2ccccc2)CC1
 : i, -0.18
O=C(Nc1ccc2c(c1)OCO2)c1c(F)c(F)c(F)c(F)c1F
 : i, 0.37
O=C(Nc1ccc([N+](=O)[O-])cc1)Nc1ccc2c(c1)OCCO2
 : i, -1.07

Compounds listed so far that have a cyano group, in the order listed:
Sequence of screens: KCNQ2 block, KCNQ2 block baseline
COc1ccccc1CN(C)C(=O)c1ccccc1Sc1ccccc1C#N
 : i, -0.25
Cc1cc(C)n2nc(/C(C#N)=C/c3ccccn3)c(C#N)c2n1
 : i, -0.02

(continued)
Sequence of screens: KCNQ2 block, KCNQ2 block baseline
CS(=O)(=O)N1CCN(c2ccc(NC(=S)NC(=O)c3cccs3)cc2)CC1
 : i, 0.99
CCOC(=O)c1ccoc1CSCc1ccc(C(=O)OC)o1
 : i, 1.71
COc1ccc(C(O)P(=O)(OCC(C)C)OCC(C)C)c(OC)c1 (stereo not drawn)
 : i, -0.89
COc1cc(C2NCCc3c2[nH]c2ccccc32)ccc1OC(C)C (stereo not drawn)
 : i, -2.75
CCSc1nnc(NC(=O)CSc2nc3c(c(=O)n2-c2ccccc2OC)SCC3)s1
 : i, 0.41
COc1ccc(C(C(=O)NC2CCCC2)N(CC2CCCO2)C(=O)Cn2nnc(-c3ccc(C)o3)n2)cc1 (stereo not drawn)
 : i, 0.36
Cc1ccccc1N1C(=O)CC(Sc2nnc(-c3ccccc3)o2)C1=O (stereo not drawn)
 : i, 0.45
COc1ccc2oc(C)c(C(=O)c3ccccc3)c2c1
 : i, 0.35
COC(=O)c1ccccc1NC(=O)CN1CCOCC1
 : i, 0.53
COc1cc(/C=N/N=C2/NC(=O)C(CC(=O)O)S2)ccc1OCc1ccc(Cl)cc1 (stereo not drawn)
 : i, 0.56
Cc1c(O)ccoc1=O
 : i, 0.09
CCc1noc(C)c1C(=O)Nc1nc(-c2cc(C)ccc2C)c(C)s1
 : i, 1.14
C=CCNC(=O)C1CC(=O)N(c2ccc(OCC(=O)Nc3c(C)cccc3C)cc2)C1 (stereo not drawn)
 : i, -1.2
Cc1onc(-c2ccccc2Cl)c1C(=O)Nc1ncn[nH]1
 : i, 0.09
CN1C=CC=C/C1=C1\SC(=S)N(N)C1=O
 : i, 0.03
CCCCn1nnnc1SCC(=O)Nc1sc2c(c1C#N)CCCC2
 : i, 0.67
Brc1ccc(-c2nnc3sc(CN4CCN(c5ccccc5)CC4)cn23)cc1
 : i, 2.26
CC(=O)N1c2ccc(S(=O)(=O)N3CCC(C(=O)N4CCCCC4)CC3)cc2CC1C (stereo not drawn)
 : i, 0.42
COc1ccccc1NC(=O)C(C)OC(=O)C1CCN(S(=O)(=O)c2ccc(C)c(C)c2)CC1 (stereo not drawn)
 : i, -0.09
CCOc1ccc(Br)cc1S(=O)(=O)Nc1nc(CN2CCOCC2)nc2sc(C)c(C)c12
 : i, -0.03
O=C(C1COc2ccccc2O1)N1CCN(c2ccccn2)CC1 (stereo not drawn)
 : i, 0.31
Nc1nnc2c(C(F)(F)F)nc3ccccc3n12
 : i, 1.48
CCSc1nc2sc3c(c2c(=O)n1CC)CC(C)(C)OC3
 : i, -1.22
COc1ccccc1NC(=O)CCNS(=O)(=O)c1ccc2c(c1)CC(C)N2C(=O)C1CC1 (stereo not drawn)
 : i, -2.05
Cc1onc(-c2ccccc2)c1C(=O)Nc1ccccc1N1CCOCC1
 : i, 1.59
CCN(CC(=O)Nc1ccc(NC(C)=O)cc1)C(=O)CCCSc1nc2ccccc2[nH]1
 : i, -0.14
Cc1noc(C)c1COC(=O)c1cccnc1Cl
 : i, -0.71
CC(C)(C)c1ccc(C(=O)N2CCN(Cc3ccccc3)CC2)cc1
 : i, -2.72
Cc1cnc(C(=O)OCC(=O)c2ccc[nH]2)cn1
 : i, 0.8
CCCCOC(=O)c1ccc(NC(=O)CSC2=Nc3ccccc3C3CC=NN23)cc1 (stereo not drawn)
 : i, -0.58

Overlap with the part before: seven compounds, then new ones.
Sequence of screens: KCNQ2 block, KCNQ2 block baseline
COc1ccccc1NC(=O)CCNS(=O)(=O)c1ccc2c(c1)CC(C)N2C(=O)C1CC1 (stereo not drawn)
 : i, -2.05
Cc1onc(-c2ccccc2)c1C(=O)Nc1ccccc1N1CCOCC1
 : i, 1.59
CCN(CC(=O)Nc1ccc(NC(C)=O)cc1)C(=O)CCCSc1nc2ccccc2[nH]1
 : i, -0.14
Cc1noc(C)c1COC(=O)c1cccnc1Cl
 : i, -0.71
CC(C)(C)c1ccc(C(=O)N2CCN(Cc3ccccc3)CC2)cc1
 : i, -2.72
Cc1cnc(C(=O)OCC(=O)c2ccc[nH]2)cn1
 : i, 0.8
CCCCOC(=O)c1ccc(NC(=O)CSC2=Nc3ccccc3C3CC=NN23)cc1 (stereo not drawn)
 : i, -0.58
O=C(COc1ccccc1)NCCSc1ccccc1
 : i, -0.98
C=CCn1c(SCC(=O)Nc2cccc3ccccc23)nnc1-c1cnccn1
 : i, -1.35
Cc1ccc(F)cc1NC(=O)C1C2CCC(O2)C1C(=O)O (stereo not drawn)
 : i, 0.04
O=C(NCc1ccccn1)Nc1cccc(Cl)c1
 : i, -0.13
NS(=O)(=O)c1ccc(NC(=S)Nc2cc(Cl)c(Cl)cc2Cl)cc1
 : i, 2.86
CCOC(=O)C1=C(CN2CCN(C(=O)c3ccco3)CC2)NC(=O)NC1c1ccccc1 (stereo not drawn)
 : i, 1.65
Cc1cnc(CN(C)C(=O)c2ccc3oc(Cc4ccc(Cl)cc4)nc3c2)[nH]1
 : i, -0.11
CCN(CC)C(=O)CSc1nnc2nnc3cc(OC)ccc3n12
 : i, 14.7
COc1ccc(OCC(=O)NS(=O)(=O)c2ccc(Cl)cc2)cc1
 : i, 1.1
COc1ccc(CN2CCNC(=O)C2CC(=O)NCCc2nc(C)c3c(n2)CCC3)cc1C (stereo not drawn)
 : i, -1.74
CC1=C(C(=O)OCC(C)C)C23C(=O)c4ccccc4C2(O1)OC(N)=C3C#N (stereo not drawn)
 : i, -1.18
COc1ccc(C(CNC(=O)CCNS(=O)(=O)c2ccc(C)cc2)N2CCOCC2)cc1 (stereo not drawn)
 : i, 0.03
NC(=O)CSc1nc2ccccc2c(=O)n1Cc1ccco1
 : i, 0.52
CCC(C)N(C(=O)COC(=O)C1C(C(=O)OC)=C(C)NC(C)=C1C(=O)OC)C1CCS(=O)(=O)C1 (stereo not drawn)
 : i, -2.54
O=C1/C(=C2\C(=O)N(Cc3ccc(F)cc3)c3ccccc32)SC(=S)N1CCS(=O)(=O)O
 : i, 0.52
CC(C)(C)NC(=O)Cn1c(-c2nonc2N)nc2ccccc21
 : i, 0.09
COc1ccc(C(=O)NNC(=O)C(C)NC(=O)c2ccccc2NC(=O)c2ccco2)cc1 (stereo not drawn)
 : i, 2.59
O=C(O)c1ccc(-c2cccc(Cl)c2)o1
 : i, -0.43
Cc1nc2sc(C(=O)c3ccccc3)c(N)c2c2c1CCCC2
 : i, 0.54
CC(C)N1CCc2c(sc(NC(=O)c3ccc(C(=O)c4ccccc4)cc3)c2C(N)=O)C1
 : i, 1.96
Cc1ccc(C)c(S(=O)(=O)N2CCCCC2CCNC(=O)C(=O)NC2CC2)c1 (stereo not drawn)
 : i, 2.35
CCCCNC(=O)CCc1c(C)nc2nc(-c3cc(OC)cc(OC)c3)nn2c1C
 : i, 0.87
Cc1cc(C)c(NC(=O)C2CC(=O)N(C(C)C)C2)c(C)c1 (stereo not drawn)
 : i, 0.24
COC(=O)c1c(NC(=S)Nc2ccccc2Cl)sc(C)c1C
 : i, 1.59
C=CCN1C(=O)N/C(=C/c2ccc(N3CCOCC3)o2)C1=O
 : i, 10.6
